Assay outcomes (PubChem BioAssay)
Methyltransferases – Primary Screen for Target Class Profiling of Small Molecule Inhibitors of Methyltransferases; AID 1745853, 2022; 3.9% of 25,000 active; purified enzyme, MTase-Glo SAH luminescence; active compounds read low; calls only at 40 µM; active = -50% or lower on at least one of six enzymes; inconclusive = the cases between; inactive = as a rule above -30% on all six;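 further: enzymes were COMT GAMT GNMT HNMT NNMT and PNMT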
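Each enzyme was assayed with SAM and its substrate. SAH formation detected by MTase-Glo luminescence; single-point 40 uM screen[…].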
Calls only; i = inactive; ? = inconclusive; + = active, no number. On the % scale 0 is the no-effect control and ±100 the full control effect. These rows are one share of the data, so the mix of outcomes need not match the whole.

SMILES	Methyltransferases
OC[C@H]1O[C@@H](O[C@H]2[C@H](O)[C@@H](CO)O[C@@H](OCc3ccccc3)[C@@H]2O[C@@H]2OC[C@](O)(CO)[C@H]2O)[C@H](O)[C@@H](O)[C@@H]1O	i
CCC(C)NC(=O)c1ccc2c(=O)n(C)c3nn(Cc4cc(C)ccc4C)c(=O)n3c2c1 (stereo not given)	i
OC[C@@H]1CN(Cc2ccco2)C[C@H]1c1ccccn1	i
Clc1cc2c(NC3CCCC3)nnc(-c3ccncc3)c2cc1Cl	?
O=c1ccn([C@@H]2O[C@H](COP(=O)(O)OP(=O)(O)O)[C@@H](O)[C@H]2O)c(=O)[nH]1	i
CC(C)=CCC/C(C)=C/CO[C@@H]1O[C@H](CO)[C@@H](OC(=O)/C=C/c2ccc(O)cc2)[C@H](O[C@@H]2O[C@@H](C)[C@H](O)[C@@H](O)[C@H]2O)[C@H]1O	i
O=C(CC1CCCCC1)N1CC(n2cc(COCC3CC3)nn2)C1	i
Cc1ccc(CN2C(=O)COC[C@H]2C(=O)N2CCN(c3cccc(Cl)c3)CC2)cc1	i
CC1=C(C)C(=O)OC(C(C)C2C(O)CC3C4C5OC5C5(O)CC(OC6OC(CO)C(OC7OC(C)C(O)C(O)C7O)C(O)C6O)CC(O)C5(C)C4CCC32C)C1 (stereo not given)	i
COC(=O)c1cc2n(n1)CC(C)(C(=O)NC1CCCCCC1)N(Cc1ccc(OC(C)C)cc1)C2=O (stereo not given)	i
O=C(Cc1cccc(Cl)c1)N1CCC(C(=O)N2CCC(c3ccccc3)CC2)CC1	i
CC(C)CNC(=O)c1ccc2c(=O)n(Cc3ccccc3)c3nn(CC(N)=O)c(=O)n3c2c1	i
Cc1noc(C)c1[S+](=O)([O-])N(C)Cc1ccc(-c2ccccc2)cc1	i
COc1ccc(N2CCN(C(=O)c3ccc4c(=O)nc5c(-c6ccc(F)cc6)n[nH]n5c4c3)CC2)cc1	i
CC(=O)OCC(=O)[C@@]1(O)CC[C@H]2[C@@H]3CCC4=CC(=O)C=C[C@]4(C)[C@H]3[C@@H](O)C[C@@]21C	i

Random excerpt: 6 records from the list, in no set order.
SMILES	Methyltransferases
O=C(CC1CCCCC1)N1CC(n2cc(COCC3CC3)nn2)C1	i
O=C(Cc1cccc(Cl)c1)N1CCC(C(=O)N2CCC(c3ccccc3)CC2)CC1	i
Cc1noc(C)c1[S+](=O)([O-])N(C)Cc1ccc(-c2ccccc2)cc1	i
CC1=C(C)C(=O)OC(C(C)C2C(O)CC3C4C5OC5C5(O)CC(OC6OC(CO)C(OC7OC(C)C(O)C(O)C7O)C(O)C6O)CC(O)C5(C)C4CCC32C)C1 (stereo not given)	i
OC[C@@H]1CN(Cc2ccco2)C[C@H]1c1ccccn1	i
CC(=O)OCC(=O)[C@@]1(O)CC[C@H]2[C@@H]3CCC4=CC(=O)C=C[C@]4(C)[C@H]3[C@@H](O)C[C@@]21C	i

(listing goes on)
SMILES	Methyltransferases
O=C(C1CC1)N1CCC(Cc2noc(-c3ccncc3)n2)C1 (stereo not given)	i
COc1ccc(-c2n[nH]n3c2nc(=O)c2ccc(C(=O)NCc4ccccc4Cl)cc23)cc1	i
Cc1noc([C@@H]2CN(C(=O)CCc3nc4ccccc4s3)C[C@H]2C(N)=O)n1	i
COc1ccc(Br)cc1[C@@H]1Nc2ccc(Cl)cc2[C@@H]2C=CC[C@@H]21	i
COc1ccccc1CNC(=O)C1(C)Cn2nc(-c3ccccc3)cc2C(=O)N1Cc1ccc(C)o1 (stereo not given)	i
O=C(CC1NCCC[C@H]1O)Cn1cnc2cc(Br)c(Cl)cc2c1=O (stereo not given in full)	i
Cc1c(Cl)cccc1NC(=O)N1Cc2c(sc3c2CCCC3)-n2cccc2C1C(C)C (stereo not given)	i
OCC1(Cc2ccc(F)cc2F)CCCN(c2cnc3ccccc3n2)C1 (stereo not given)	i
CCc1cc(=O)n(CC(=O)NCc2ccc(OC)c(OC)c2)c(-c2ccccc2)n1	i
COCCN1C(=O)c2c(NC(C)=O)c3cc(F)ccc3n2CC1(C)C(=O)NC1CCCCC1 (stereo not given)	i
Cn1cc(-c2ccc(F)c(C(F)(F)F)c2)nc1C1CCN(c2ncnc3[nH]ncc23)CC1	+
Cc1nnn2c(C(=O)NCc3ccc(Cl)cc3)cccc12	i
CC1(C(=O)NCc2ccccc2)Cn2cnc(C(=O)NCCc3ccco3)c2C(=O)N1C1CC1 (stereo not given)	i
CC(C)NC(=O)c1ccc2c(=O)n(Cc3ccccc3)c3n[nH]c(=O)n3c2c1	i
COC(=O)[C@H](Cc1ccc(OC)cc1)NC(=O)[C@H]1CN(S(=O)(=O)c2ccccc2)CCN1S(=O)(=O)c1ccccc1	i
CC1CCCCC1NC(=O)C1(C)Cn2c(cc3sccc32)C(=O)N1CCc1ccccc1 (stereo not given)	i
O=C(CCc1nnc2n(Cc3ccccc3)c(=O)c3ccccc3n12)N1CCN(c2ccc(Cl)cc2)CC1	i
CC(C)(C)C(=O)Nc1nc2c(s1)C[C@@H]1[C@](C)(CO)[C@H](O)CC[C@@]1(C)[C@@H]2CC(=O)O	i
C=CC(N)CCC(=O)O (stereo not given)	i
COc1ccc(C(=O)N2CC[C@H](c3nnc(-c4ccccc4)o3)C2)cc1	i
COc1ccc(Oc2c(Cl)cnn(C3c4ccccc4-c4ccccc43)c2=O)cc1	?
O=C(Cn1nc2n(Cc3ccc(F)cc3)c(=O)c3ccccc3n2c1=O)Nc1ccc(F)cc1F	i
Cc1ccc(C(CC(=O)N2CCCCC2)c2cn(C)c3ccccc23)cc1 (stereo not given)	i
CC(C)Cn1c(=O)c2ccccc2n2c(=O)n(CC(=O)N3CCN(c4ccccc4F)CC3)nc12	i
Cc1ccc(CCNC(=O)c2cc3n(n2)CC(C)(C(=O)NC2CCCCCC2)N(C)C3=O)cc1 (stereo not given)	i
CCCn1c(=O)c2ccccc2n2c(=O)n(Cc3ccccc3C)nc12	i
CN1C[C@@H](NC(=O)NC2CCCCC2)C[C@H]1c1nc(Cc2ccccc2)no1	i
Cc1nc2sccn2c(=O)c1CCN1CCC(=C(c2ccc(F)cc2)c2ccc(F)cc2)CC1	?
Cn1c(=O)c2[nH]c(-c3ccc(S(=O)(=O)O)cc3)nc2n(C)c1=O	+
C[C@@H](O)[C@H](NC(=O)c1ccc(C#Cc2ccc(CN3CCOCC3)cc2)cc1)C(=O)NO	i
CCOC(=O)c1cc2n(n1)CC(C)(C(=O)NCc1ccccc1)N(c1ccc(C(C)C)cc1)C2=O (stereo not given)	i
Cc1noc(C)c1S(=O)(=O)N1CCC2(CC1)CC(OCC1CC1)CCO2 (stereo not given)	i
O=C(Cn1ccc2cc(S(=O)(=O)N3CCCCC3)ccc21)NCc1ccc2c(c1)OCO2	i
COc1ccc(S(=O)(=O)N2CCC(n3cnnc3C)CC2)cc1OC	i
C[C@H](c1ccc(F)cc1CCCC(=O)O)N(c1cc(F)ccc1F)S(=O)(=O)c1ccc(Cl)cc1	i
CC(C)OCCCn1c(=O)c2ccccc2n2c(CCC(=O)N3CCN(c4ccccn4)CC3)nnc12	i
CC(=O)N[C@H]1[C@H](O[C@H]2CC[C@@]3(C)C(CC[C@]4(C)C3CC=C3C5CC(C)(C)CC[C@]5(C(=O)O)C(O)C[C@]34C)C2(C)C)O[C@H](CO[C@@H]2O[C@H](C)[C@H](O)[C@H](O)[C@H]2O[C@@H]2OC[C@@H](O)[C@H](O)[C@H]2O)[C@@H](O)[C@@H]1O (stereo not given in full)	i
CC1CCCC(NC(=O)C2(C)Cn3c(nc4ccccc43)C(=O)N2Cc2ccccc2Cl)C1C (stereo not given)	i
CN(Cc1ccccc1)C1(C(=O)NC2CCC(O)CC2)Cc2ccccc2C1 (stereo not given)	+
CC(C)(C)C(=O)N[C@H]1C[C@@H](Cc2cc(CN3CCN(c4ccccc4)CC3)on2)C1(C)C	i
CC1CCCCC1NC(=O)C1(C)Cn2c(nc3ccccc32)C(=O)N1CCCc1ccccc1 (stereo not given)	i
CCCc1cnc(C)nc1N1CC[C@@H](NC(=O)c2cnccn2)[C@H](O)C1	i
Cc1ccc(NC(=O)CCNc2c(C)nc3cnccn23)c(F)c1	i
CC(C)CCNC(=O)C1(C)Cn2nc(C(=O)NCCc3cccs3)cc2C(=O)N1C (stereo not given)	i
C[C@@H]1C[C@H](O)/C=C/[C@H](O)[C@@H](O)CC(=O)O1	i
CCOC(=O)c1cc2n(n1)CC(C)(C(=O)NCc1ccc(Cl)cc1)N(CCc1ccco1)C2=O (stereo not given)	i
O=C1CN(Cc2cccc(Br)c2)S(=O)(=O)c2ccccc2N1Cc1cccc(F)c1	i
Cc1ccc(NC(=O)c2ncn3c2C(=O)N(C2CC2)C(C)(C(=O)NCc2ccc(F)cc2)C3)c(Cl)c1 (stereo not given)	i
Cc1cccc(CCN2CCC3(CC2)C(C(=O)O)CC(=O)N3C)n1 (stereo not given)	i
CC1(C(=O)NC2CCCC2)Cn2c(ccc2-c2ccccc2)C(=O)N1CCc1cccs1 (stereo not given)	i
CN1[C@@H](CCC(=O)N2CCN(c3ccccn3)CC2)CNC(=O)[C@@H]2[C@H]1CCN2Cc1ncc[nH]1	i
CC(=O)c1c(O)cc2c(c1C)C(=O)CC(O)C2 (stereo not given)	i
C/C=C/C=C/C(O)=C1/C(=O)[C@]2(C)C(=O)[C@@](C)(O)[C@H]1[C@H]([C@@]1(C)OC(=O)C(C)=C1O)[C@H]2C(=O)CC/C=C/C	i
CCOCCCN1C(=O)c2c(NC(C)=O)c3cc(F)ccc3n2CC1(C)C(=O)NC1CCCCC1 (stereo not given)	i
O=[N+]([O-])c1nccn1CO[C@@H](CO)[C@H](O)CO	i
Cc1ccc(NC(=O)CCc2nnc3n(CC(C)C)c(=O)c4ccccc4n23)cc1C	i
CCC(=O)c1cc(-c2ccc(Cl)cc2)n(-c2ccc(S(N)(=O)=O)cc2)c1C	?
CC(=O)OC[C@@]12C(=O)C[C@@H](C)[C@]3(C[C@@H](c4ccoc4)OC3=O)[C@H]1CC[C@H](OC(C)=O)[C@]21CO1	i
CS(=O)(=O)N1C[C@H]2CCN(C(=O)Cc3ccccc3Cl)C[C@H]21	i
CC(C)N1C(=O)[C@@H]2[C@@H](CCN2C(=O)CCCC(=O)O)N(Cc2cccc(F)c2)C1=O	i

Other records:
SMILES	Methyltransferases
CC(C)CCn1c(=O)c2ccc(C(=O)NC3CCCC3)cc2n2c(=O)n(Cc3ccc(Cl)cc3)nc12	i
CC(C)=CC[C@H]1O[C@]2(O)C([C@H]3CCC4[C@@]5(C)CC[C@H](O[C@@H]6O[C@H](CO)[C@H](O)[C@H](O[C@@H]7O[C@H](CO)[C@@H](O)[C@H](O)[C@H]7O)[C@H]6O[C@@H]6O[C@@H](C)[C@H](O)[C@@H](O)[C@H]6O)C(C)(C)C5CC[C@@]4(C)[C@]3(C)[C@H]2O)[C@@]1(C)O (stereo not given in full)	i
CCCCN1C(=O)c2cc(C(=O)Nc3cccc(Cl)c3C)nn2CC1(C)C(=O)NC1CCCC1 (stereo not given)	i
CCOc1ccccc1NC(=O)N1CCn2c(C)ccc2C1C(C)C (stereo not given)	i
CCc1cc2c(cc3n2CC(C)(C(=O)NC2CCCCCC2)N(Cc2ccccc2)C3=O)s1 (stereo not given)	i
CCOCCCN1C(=O)c2cc3c(OC)ccc(OC)c3n2CC1(C)C(=O)NC1CCCCC1 (stereo not given)	i
Cc1cnc(C2CCNC2)n1Cc1ccccc1 (stereo not given)	?
O=C(NC1CCCCC1)N[C@H]1C[C@H]2C(=O)N3CCC[C@@H]3C(=O)N2C1	i
CC1(C(=O)NC2CCCC2)Cn2c(ccc2-c2ccco2)C(=O)N1Cc1ccc2c(c1)OCO2 (stereo not given)	i
COC(=O)c1cc2n(n1)CC(C)(C(=O)NC1CCC(C)CC1)N(c1cc(Cl)ccc1C)C2=O (stereo not given)	i
Cc1cc(C)c2c(N3CCCC(OCc4cccnc4)C3)ncnc2n1 (stereo not given)	i
COc1ccc(CNCC2(CO)C[C@@H](O)[C@@H](O)C2)cc1 (stereo not given in full)	i
COC(=O)C1=CN(CC(=O)NCCCc2ccccc2)S(=O)(=O)N=C1C	i
CC#CC(=O)N1CCC[C@H]1c1nc(-c2ccc(C(=O)Nc3ccccn3)cc2)c2c(N)nccn12	i
COc1ccccc1Nc1nc2c(S(=O)(=O)c3ccccc3)nnn2c2ccccc12	i

Compounds above with a tert-butyl group, in the order listed:
SMILES	Methyltransferases
CC(C)(C)C(=O)Nc1nc2c(s1)C[C@@H]1[C@](C)(CO)[C@H](O)CC[C@@]1(C)[C@@H]2CC(=O)O	i
CC(C)(C)C(=O)N[C@H]1C[C@@H](Cc2cc(CN3CCN(c4ccccc4)CC3)on2)C1(C)C	i

New compounds follow.
SMILES	Methyltransferases
CCCCN1C(=O)c2cc(C(=O)Nc3ccc(C)cc3C)nn2CC1(C)C(=O)NC1CCCC1 (stereo not given)	i
COCCN1C(=O)c2nc3ccccc3n2CC1(C)C(=O)NC1CCCCC1C (stereo not given)	i
Cc1ccc2c(cnn2C(=O)CCCC(=O)N2CCN(c3ccccc3)CC2)c1	i
CC1(C(=O)NC2CCCCCCC2)Cn2c(cc3occc32)C(=O)N1CCCN1CCCCCC1 (stereo not given)	i
CCNC(=O)N1CCCN(c2ccc(C(=O)NCCc3ccc(Cl)cc3Cl)cc2NC(=O)c2cccc(Cl)c2)CC1	?
CC(C)NC(=O)[C@@H]1C[C@@H](N)CN1C(=O)c1cccc2ccccc12	i
CC(C)Cn1c(=O)c2ccc(C(=O)NC3CCCCC3)cc2n2c(=O)n(CC(=O)NC3CCCC3)nc12	i

Among those listed so far, these have a thiophene ring, fused or not.
SMILES	Methyltransferases
Cc1c(Cl)cccc1NC(=O)N1Cc2c(sc3c2CCCC3)-n2cccc2C1C(C)C (stereo not given)	i
CC1CCCCC1NC(=O)C1(C)Cn2c(cc3sccc32)C(=O)N1CCc1ccccc1 (stereo not given)	i
CC(C)CCNC(=O)C1(C)Cn2nc(C(=O)NCCc3cccs3)cc2C(=O)N1C (stereo not given)	i
CC1(C(=O)NC2CCCC2)Cn2c(ccc2-c2ccccc2)C(=O)N1CCc1cccs1 (stereo not given)	i
CCc1cc2c(cc3n2CC(C)(C(=O)NC2CCCCCC2)N(Cc2ccccc2)C3=O)s1 (stereo not given)	i
